D2 PAM: Beta-Arrestin HTS for Positive Allosteric Modulators of the Human D2 Dopamine Receptor: Potentiators. potentiation, % (concentration not given with the values). DiscoveRx D2 beta-arrestin cells, luminescence, 90 min; 100% = 57 uM dopamine signal. 360,000 tested, 0.23% active; active = potentiation of 50% or more; inconclusive = 30% to 50%; inactive = 30% or less;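 note: compound concentration not given in the record; tested on top of an EC20 dose of dopamine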
Target sequence (P14416 whole entry, looked up): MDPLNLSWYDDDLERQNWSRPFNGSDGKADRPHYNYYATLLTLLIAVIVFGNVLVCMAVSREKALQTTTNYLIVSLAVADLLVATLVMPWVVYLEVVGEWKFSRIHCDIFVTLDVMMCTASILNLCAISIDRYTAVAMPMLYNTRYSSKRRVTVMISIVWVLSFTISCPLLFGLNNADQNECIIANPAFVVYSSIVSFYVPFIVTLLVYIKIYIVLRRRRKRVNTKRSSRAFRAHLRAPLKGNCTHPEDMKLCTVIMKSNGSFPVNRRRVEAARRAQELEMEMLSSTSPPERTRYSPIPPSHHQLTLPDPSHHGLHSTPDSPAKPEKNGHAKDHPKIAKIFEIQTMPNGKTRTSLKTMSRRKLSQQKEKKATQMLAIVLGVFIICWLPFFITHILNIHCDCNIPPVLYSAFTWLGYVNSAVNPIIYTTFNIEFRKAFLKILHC
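PathHunter beta-arrestin assay in DiscoveRx D2 cells. Compounds were added with an EC20 of dopamine (50 nM final) for 90 min at 37 deg C. Luminescence was read 1 h after detection reagent, with 57 uM dopamine as the EC100 control.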
CtBP-E1A blk: qHTS Assay for Inhibitors of the CtBP/E1A Interaction | CtBP / adenovirus E1A interaction (AlphaScreen) | AlphaScreen GST-E1A/His-CtBP binding, 1536-well; stronger effect = lower value; control for the full effect not named in the record | activity change, % (test concentration not listed) | 340,000 tested, 0.49% active; in the data active means activity change below about -65%; inconclusive means about -30% to -65%; inactive means above about -30%; note: % is set by controls: 0 for no effect and ±100 for the full control effect; compound concentration not given in the record
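In 5 uL wells, 23 nL compound meets equimolar GST-E1A and His-CtBP (5X stock 125 nM each) for 2 h, 37 °C. Beads (5X, 50 ug/mL) then 1 h, 37 °C, dark.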
TRPV1 potentiator: HTS Assay for Compounds that Act as Potentiators of the Vanilloid Receptor 1. Transient receptor potential cation channel subfamily V member 1 (Homo sapiens), Q8NER1. TRPV1-expressing cells, Fluo-8 calcium influx, capsaicin EC20 potentiation; host cell line not named in the record; control for the full effect not named in the record. potentiation, % at 8.33 µM. 320,000 tested, 0.02% active. AID 540277, 2011; active means potentiation above 80%; inconclusive means 30% to 80%; inactive means below 30%; note: 0% is about no effect
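TRPV1-expressing cells were cultured overnight at 35.5C and loaded with Fluo-8 calcium dye for 40 to 90 min at room temperature. After a 10 s baseline, compound was added and calcium influx was read kinetically for 3 min (ex 480/em 520 nm).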
TRPML1 ag: qHTS for Agonists of the Human Mucolipin Transient Receptor Potential 1 (TRPML1). TRPML1-expressing cells, Ca2+ dye fluorescence, FDSS; host cell line not named in the record; reference of the full effect not given here. 410,000 tested, 0.12% active. activation, % (test concentration not listed). AID 624414, 2012; in the data active = activation above about 50%; inconclusive = about 30% to 50%; inactive = below about 30%; note: 0% is about no effect; the text of the record puts the active cut at 80%
Target sequence (Q9GZU1 whole entry, looked up): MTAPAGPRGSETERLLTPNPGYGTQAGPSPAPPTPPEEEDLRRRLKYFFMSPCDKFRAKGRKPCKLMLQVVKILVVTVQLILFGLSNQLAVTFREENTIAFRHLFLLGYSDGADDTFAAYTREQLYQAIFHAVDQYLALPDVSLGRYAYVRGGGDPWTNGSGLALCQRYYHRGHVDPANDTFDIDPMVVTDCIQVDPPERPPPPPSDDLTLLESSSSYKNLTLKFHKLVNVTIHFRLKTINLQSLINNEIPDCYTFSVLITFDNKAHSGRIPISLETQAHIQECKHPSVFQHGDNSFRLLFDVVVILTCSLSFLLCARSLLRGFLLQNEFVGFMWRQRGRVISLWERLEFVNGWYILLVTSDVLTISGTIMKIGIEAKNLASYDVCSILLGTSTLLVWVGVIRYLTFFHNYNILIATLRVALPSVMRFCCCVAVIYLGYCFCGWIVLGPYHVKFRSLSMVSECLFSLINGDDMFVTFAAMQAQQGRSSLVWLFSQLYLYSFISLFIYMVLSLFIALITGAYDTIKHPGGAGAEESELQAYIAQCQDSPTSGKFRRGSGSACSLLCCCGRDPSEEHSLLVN
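Kinetic FDSS Ca2+ read in Tet-induced TRPML1-DL cells (ABD Ca8 dye plus quencher, 45-90 min RT loading): baseline, then compound, then 110 s agonist window; EC80 agonist 54-4 at 4uM final added afterwards for a 110 s antagonist window.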
TRPML1 inh: qHTS for Inhibitors of the Human Mucolipin Transient Receptor Potential 1 (TRPML1) | Mucolipin-1 (Homo sapiens), Q9GZU1 | TRPML1-inducible cells, Ca2+ dye fluorescence, FDSS; stronger effect = lower value; inhibition of EC80 agonist-evoked calcium signal | activity change, negative = inhibition, % (test concentration not listed) | 390,000 tested, 0.02% active | AID 624415, 2012; in the data active means activity change below about -50%; inconclusive means about -30% to -50%; inactive means above about -30%;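 note: stimulus is agonist 54-4 at its EC80 concentration; % is set by controls: 0 for no effect and ±100 for the full control effect; compound concentration not given in the record; the text of the record puts the active cut at -80%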
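Tet-induced TRPML1-DL cells loaded with Ca8 no-wash calcium dye were read kinetically on FDSS. Compound addition was followed by EC80 agonist 54-4 (4 uM final); inhibition was read over 110 s.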
Six1-Eya2 blk: qHTS Assay for Inhibitors of the Six1/Eya2 Interaction; Homeobox protein SIX1 (Homo sapiens) + Protein phosphatase EYA2 (Homo sapiens), …; AlphaScreen GST-Six1/His-Eya2 binding, biochemical; stronger effect = lower value; control for the full effect not named in the record; activity change, % (no concentration beside the values); 360,000 tested, 0.56% active; AID 651725, 2012; in the data active = activity change below about -65%; inconclusive = about -30% to -65%; inactive = above about -30%; note: % is set by controls: 0 for no effect and ±100 for the full control effect; compound concentration not given in the record
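AlphaScreen with GST-Six1 and His-Eya2 (5X mix: 250 nM and 500 nM), glutathione donor and nickel acceptor beads; buffer 50 mM Tris pH 8.0, 300 mM NaCl, 1 mM TCEP; 1 h at 37 C in the dark.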
* hit, by the source's call; ? = inconclusive; . = not tested or not shown.

Under each structure: D2 PAM	CtBP-E1A blk	TRPV1 potentiator	TRPML1 ag	TRPML1 inh	Six1-Eya2 blk
1. CCn1cc(C(=O)NC(C)C23CC4CC(CC(C4)C2)C3)cn1 (configuration not stated)
 : -18	0	-7	0.9	-23	10
2. O=C(Nc1ccccc1)c1cccc(N2C(=O)C3C4C=CC(C4)C3C2=O)c1 (configuration not stated)
 : -2	0	7	0.0	6	-1
3. N#CC(c1ccc(F)cc1)c1ccc(C(=O)c2ccc(F)cc2)cc1 (configuration not stated)
 : -9	25	-7	5.7	26	41
4. CCn1c(=O)c2cc(C(=O)NCCN(C)C)sc2c2ccccc21
 : -26	-21	5	1.4	44	3
5. Cc1nc(=O)c(-c2ccccc2)c(C)n1-c1ccccc1Cl
 : 4	.	.	0.8	9	10
6. CC(C)CC(=O)NC(=S)Nc1ccc(NC(=O)c2cccs2)cc1
 : -17	3	7	0.9	19	5
7. COc1ccccc1NC(=O)Nc1ccc(CC#N)cc1
 : -21	.	-17	-0.7	2	0
8. COc1ccc(S(=O)(=O)N(C)C)cc1NC(=O)c1ccc2c(c1)NC(=O)C(C)S2 (configuration not stated)
 : -36	.	7	-0.4	1	-6
9. NCC(c1ccc(Cl)cc1Cl)c1c[nH]c2ccccc12 (configuration not stated)
 : -3	-13	-3	0.0	-20	-2
10. Cc1cc(NS(=O)(=O)c2ccc(NC(=O)CSc3nnc(-c4ccco4)n3Cc3ccco3)cc2)nc(C)n1
 : -9	-4	24	1.2	-19	?

Five neighbouring records from above, for reference:
Under each structure: D2 PAM	CtBP-E1A blk	TRPV1 potentiator	TRPML1 ag	TRPML1 inh	Six1-Eya2 blk
1. CCn1cc(C(=O)NC(C)C23CC4CC(CC(C4)C2)C3)cn1 (configuration not stated)
 : -18	0	-7	0.9	-23	10
2. O=C(Nc1ccccc1)c1cccc(N2C(=O)C3C4C=CC(C4)C3C2=O)c1 (configuration not stated)
 : -2	0	7	0.0	6	-1
3. N#CC(c1ccc(F)cc1)c1ccc(C(=O)c2ccc(F)cc2)cc1 (configuration not stated)
 : -9	25	-7	5.7	26	41
4. CCn1c(=O)c2cc(C(=O)NCCN(C)C)sc2c2ccccc21
 : -26	-21	5	1.4	44	3
5. Cc1nc(=O)c(-c2ccccc2)c(C)n1-c1ccccc1Cl
 : 4	.	.	0.8	9	10

Following part:
Under each structure: D2 PAM	CtBP-E1A blk	TRPV1 potentiator	TRPML1 ag	TRPML1 inh	Six1-Eya2 blk
11. CC(=O)Nc1cc([N+](=O)[O-])ccc1OCc1ccccc1
 : -9	7	.	1.8	-6	-6
12. Cc1[nH][nH]c(=O)c1N=Nc1ccccc1
 : -8	-12	-6	4.3	0	-5
13. CC(C(=O)Nc1ccccc1-c1ccccc1)N1CCCCC1 (configuration not stated)
 : -4	4	19	0.0	1	12
14. O=C1c2ccccc2C(c2nnnn2Cc2ccccc2)N1CCOc1ccccc1 (configuration not stated)
 : .	11	.	-0.9	.	3
15. Cn1cnc([N+](=O)[O-])c1Sc1n[nH]c(N)n1
 : 1	.	3	2.4	7	-6
16. CCNCc1nc2cc(Cl)ccc2c(=O)[nH]1
 : -13	-23	4	2.0	-9	1
17. COc1ccc(-c2csc3ncn(-c4cccc(C)c4)c(=O)c23)cc1OC
 : -4	.	-9	1.2	-2	4
18. CC(=O)Oc1ccc2c(=O)c(N3C(=O)c4ccccc4C3=O)c(C)oc2c1
 : -20	-11	?	-0.4	-1	-10
19. CN(C)S(=O)(=O)c1cccc(C(=O)NCc2ccco2)c1
 : -15	2	10	-0.4	-6	-2
20. Cc1ccc(S(=O)(=O)CCC(=O)c2ccc(F)cc2)cc1
 : -15	-10	-4	1.0	-25	-1
21. CC(NC(=O)Oc1cccc2ccccc12)c1ccccc1 (configuration not stated)
 : 1	7	.	1.0	-4	-7
22. CS(=O)(=O)c1ccc2nc(NC(=O)CS(=O)(=O)Cc3ccccc3)sc2c1
 : -4	.	-20	0.8	-10	-6
23. COc1ccccc1-c1cc2nc(NCCc3ccncc3)ccn2n1
 : -4	-16	.	1.2	0	-24
24. CC(C)CC(=O)NC(=S)Nc1ccc(S(=O)(=O)N2CCCC2)cc1
 : -4	.	-12	-0.6	1	-1
25. Cc1nn(Cc2ccc(C(=O)NC3CCCCC3)o2)c(C)c1Br
 : -3	6	1	1.2	-7	1
26. Cc1nn(C)c(Oc2cccc(Cl)c2)c1C#N
 : -9	.	-12	0.9	1	-2
27. C[C@H](C(O)c1ccccc1)N(C)C(=O)CN (some centres not stated)
 : -8	-3	?	-0.6	4	-4
28. O=C1CC(N2CCN(C/C=C/c3ccccc3)CC2)C(=O)N1Cc1ccc(N2CCCC2=O)cc1 (configuration not stated)
 : -7	2	9	-0.9	3	-5
29. CCCCCn1c(=O)[nH]c2cc(C(=O)NCCN3CCCCC3C)ccc2c1=O (configuration not stated)
 : -13	19	-24	0.3	-6	17
30. COc1ccc(Cl)cc1C(=O)NNC(=O)C1COc2ccccc2O1 (configuration not stated)
 : -1	9	?	1.2	10	10
31. COc1ccccc1NC(=O)C(O)C(O)C(=O)Nc1ccccc1OC (configuration not stated)
 : 9	8	6	-0.8	-10	5
32. O=S1(=O)CC(c2ccccc2)=NN=C(c2ccccc2)C1
 : -3	1	.	-1.0	22	2
33. Cc1cccc(CSc2ccc(S(=O)(=O)N3CCCC3)cn2)c1
 : -5	.	-8	3.4	-8	27
34. COc1ccc(NC(=O)Cn2cc(C(C)=O)c3ccccc32)cc1
 : 0	10	22	0.4	34	1
35. N#C/C(=C\c1ccc([N+](=O)[O-])cc1)C(=O)NCCCn1ccnc1
 : 2	-12	7	0.7	25	0
36. Cn1c(CN2CCCCC2)nc2cc(NS(=O)(=O)c3ccc(Cl)cc3)ccc21
 : -22	-8	-10	-0.1	-13	-8
37. CC(NC(=O)CSc1nnc(CC(=O)Nc2ccc(Cl)c(Cl)c2)n1C)c1ccccc1 (configuration not stated)
 : -10	6	-23	-0.7	-8	9
38. CN(C)NC(=S)NC1CCS(=O)(=O)C1 (configuration not stated)
 : -8	2	-9	-0.6	-6	-13
39. Cc1cccc(C)c1OCc1nnc2c3cnn(C)c3ncn12
 : -13	5	-2	-1.0	-6	6
40. CCCn1nc(Oc2nc(NC(C)C)nc(N(C)C)n2)ccc1=O
 : -1	2	-14	-0.3	-2	0
41. O=C(NCC(c1ccco1)N1CCCC1)c1cccc(S(=O)(=O)N2CCc3ccccc32)c1 (configuration not stated)
 : -25	-5	.	-0.1	-21	-3
42. Cc1cc(C)cc(OCC(=O)N2N=C(c3cccnc3)CC2(O)C(F)(F)F)c1 (configuration not stated)
 : 2	0	0	2.0	4	-5
43. CCC1(C)Cc2c(sc(NC(=O)CCC(=O)O)c2C#N)CO1 (configuration not stated)
 : -3	5	?	-0.4	31	3
44. COc1ccc(-c2[nH]ncc2CN2CCC(C(=O)N3CCOCC3)CC2)c(F)c1
 : -12	-10	4	-0.1	6	-1
45. Cc1onc(-c2ccccc2)c1C(=O)N/N=C(\N)COc1ccc(Cl)cc1
 : -13	-8	2	-0.7	-1	-4
46. CC(=O)C1=C(O)C(=CC=Cc2ccccc2)OC1=O
 : -10	-6	.	-0.1	13	-4
47. CCOc1ccc(N(C(=O)C2CCCO2)C2C=CS(=O)(=O)C2)cc1 (configuration not stated)
 : -3	11	1	0.3	14	16
48. N#Cc1nc(-c2ccco2)oc1NCCCn1ccnc1
 : -6	-3	11	0.5	-9	-2
49. O=C(NCCc1ccc(O)c(Br)c1)c1ccc(Br)o1
 : .	-18	.	-0.4	.	-3
50. CC(CN1CCCCC1)OC(=O)C1c2ccccc2Oc2ccccc21 (configuration not stated)
 : -30	3	1	4.4	5	0
51. COc1ccc(CC(=O)NNS(=O)(=O)c2ccccc2[N+](=O)[O-])cc1
 : 2	5	8	-0.6	23	3
52. Cc1nc2ccc(Br)cc2c2c1CC(CO)O2 (configuration not stated)
 : 0	5	6	1.4	-2	7
53. CCN(c1ccccc1)S(=O)(=O)c1ccc(NCC2COc3ccccc3O2)nc1 (configuration not stated)
 : -15	-13	7	5.8	15	-8
54. N#Cc1c(NCc2ccccc2)ccnc1Cl
 : -8	1	.	-0.2	-1	2
55. CCOc1ccc(CCNC(=O)CCNC(=O)c2ccc(Br)cc2)cc1OCC
 : -2	6	-8	0.5	-15	3
56. COc1ccc(-c2nc3n(c2C)Cc2ccccc2-3)cc1
 : -14	-2	16	0.3	-11	-1
57. COc1ccc2c(c1)[nH]c1c(=O)n(CCc3cnc[nH]3)cnc12
 : 22	-6	-5	-0.4	-8	-15
58. Cc1ccc(S(=O)(=O)c2c(CO)c(-c3ccccc3)nn2C)cc1
 : -3	-7	-15	3.1	-6	-4
59. COc1ccc(C)cc1Nc1n[n+](-c2ccccc2)c(-c2cccc(Cl)c2Cl)s1
 : -15	-4	6	-0.4	-5	-4
60. CCOC(=O)c1c(NC(=O)CN(C)C2CCN(C)CC2)sc(C(=O)Nc2ccccc2)c1C
 : -8	.	4	0.7	5	7

More compounds follow:
Under each structure: D2 PAM	CtBP-E1A blk	TRPV1 potentiator	TRPML1 ag	TRPML1 inh	Six1-Eya2 blk
61. CCOc1ccc(NC(=O)[C@@H]2CCCN2C(=O)c2cccs2)cc1S(=O)(=O)N1CCOCC1
 : -2	-19	-2	-0.3	3	-1
62. O=C(N1CCN(c2ccccc2)CC1)C(F)(F)C(F)F
 : -18	4	-7	-0.5	7	3
63. O=C1CN(C(=O)C2CC2)c2ccccc2N1
 : -14	5	-4	0.3	-17	2
64. CCOC(=O)C1(C)/C(=N/Nc2ccccc2OC)C(=O)C(=O)N1c1ccccc1 (configuration not stated)
 : 2	?	-19	0.3	9	-26
65. O=C(NC1=NCCS1)C1CC(=O)N(c2ccc(F)cc2)C1 (configuration not stated)
 : 1	-7	-3	0.0	14	-5

Part of the list above, in transposed form:
63: O=C1CN(C(=O)C2CC2)c2ccccc2N1
64: CCOC(=O)C1(C)/C(=N/Nc2ccccc2OC)C(=O)C(=O)N1c1ccccc1 (configuration not stated)

assay / compound | 63 | 64
D2 PAM | -14 | 2
CtBP-E1A blk | 5 | ?
TRPV1 potentiator | -4 | -19
TRPML1 ag | 0.3 | 0.3
TRPML1 inh | -17 | 9
Six1-Eya2 blk | 2 | -26

High-throughput results: PubChem, National Center for Advancing Translational Sciences (NCATS)
